Assay outcomes from PubChem BioAssay.
D2 agonist: agonists of human D2 dopamine receptor (beta-arrestin); hit rate 0.084% among 360,000; activation, % (concentration not given with the values); P14416; AID 624465; DiscoveRx PathHunter D2 beta-arrestin, luminescence, 90 min; 100% = 57 uM dopamine signal; in the data active = activation above about 40%; inconclusive = about 15% to 40%; inactive = below about 15%; also: compound concentration not given in the record; the text of the record calls up to 30% inactive
Target sequence (P14416 whole entry, looked up): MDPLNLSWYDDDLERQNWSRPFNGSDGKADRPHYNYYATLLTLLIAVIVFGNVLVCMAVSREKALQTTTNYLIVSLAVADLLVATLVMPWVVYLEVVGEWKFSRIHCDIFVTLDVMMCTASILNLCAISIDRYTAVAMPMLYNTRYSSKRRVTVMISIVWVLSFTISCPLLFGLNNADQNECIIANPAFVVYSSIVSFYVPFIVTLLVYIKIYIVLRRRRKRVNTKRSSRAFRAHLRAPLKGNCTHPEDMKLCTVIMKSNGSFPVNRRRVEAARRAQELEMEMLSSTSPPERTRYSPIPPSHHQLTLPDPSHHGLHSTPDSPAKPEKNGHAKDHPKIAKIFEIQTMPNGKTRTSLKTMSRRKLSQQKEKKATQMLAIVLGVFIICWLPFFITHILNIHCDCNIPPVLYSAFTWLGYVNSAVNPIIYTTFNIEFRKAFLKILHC
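Agonist mode: compounds alone added to overnight-plated D2 PathHunter cells for 90 min at 37 C, with 57 uM final dopamine (EC100) defining full response. Beta-arrestin recruitment detected by chemiluminescent reagent, read after 1 h at ambient temperature.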
gsp ag: gsp mutant agonism | gsp mutant cells, cAMP HTRF, 30 min; control for the full effect not named in the record | Potency, µM (highest dose often 76.9 µM), for inactives: at the top dose activation (cAMP increase), actives largely listed as activators | hit rate 0.13% among 340,000; active = well fitted activation curve with a large enough effect; inconclusive = small, poorly fitted or top-dose-only effect, or another doubt; inactive = no such curve, though single readings can be large or run the other way; cell line not stated here;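 also: phosphodiesterase inhibitor Ro 20-1724 added with compounds to block cAMP breakdown; potency is read from the fitted curve at half-maximal effect; nearly all actives have a fitted effect of over 60% in size; about a fifth of the inactives were tested at one dose only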
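Cells in DMEM/10% FBS with G418 were pretreated with compounds in DMSO plus […] (300 uM stock) for 30 min at 37C. cAMP was measured by HTRF (cAMP-d2 plus anti-cAMP antibody-K) after 30 min at room temperature.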
CtBP-E1A inh: CtBP/E1A binding inhibition. AlphaScreen GST-E1A/His-CtBP binding, 1536-well; hits give low values; control for the full effect not named in the record. activity change, % (test concentration not listed). hit rate 0.49% among 340,000; in the data active means activity change below about -65%; inconclusive means about -30% to -65%; inactive means above about -30%; also: % is scaled to controls: 0 for no effect and ±100 for the full control effect; compound concentration not given in the record
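Homogeneous bead-based format: GST-tagged E1A captured on glutathione donor beads, His-tagged CtBP on nickel acceptor beads; compounds precede bead addition by 2 h at 37 °C.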
gsp antagonist: antagonists of gsp mutant (McCune-Albright syndrome); gsp-mutant cells, cAMP HTRF, 30 min; control for the full effect not named in the record; Potency, µM (doses to about 76.9 µM), without a hit: at the top dose activity change, negative = inhibition, hits mostly inhibitors; hit rate 0.4% among 340,000; AID 624288; active = falling curve of any shape with a large fitted effect; inconclusive = falling curve, mostly with a smaller effect; inactive = flat or rising curve; cell line not stated here;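 also: intracellular cAMP measured with PDE inhibitor Ro 20-1724 present during compound exposure; potency is read from the fitted curve at half-maximal effect; % is scaled to controls: 0 for no effect and ±100 for the full control effect; nearly all actives have a fitted effect of over 65% in size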
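Cells in G418 medium, seeded 16-24 h, 37C; buffer exchange to DPBS + 1 mM CaCl2, 0.5 mM MgCl2, 0.05% BSA; cpds in DMSO + […] (300 uM stock), 30 min 37C; HTRF cAMP detection.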
D2 PAM: positive allosteric modulators of human D2 dopamine receptor; P14416; DiscoveRx D2 beta-arrestin cells, luminescence, 90 min; 100% = 57 uM dopamine signal; potentiation, % (no concentration beside the values); hit rate 0.23% among 360,000; active = potentiation of 50% or more; inconclusive = 30% to 50%; inactive = 30% or less;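 also: compound concentration not given in the record; tested on top of an EC20 dose of dopamine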
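PathHunter D2 cells, attached overnight at 37 deg C, received compound in DMSO plus dopamine at EC20 (50 nM final) for 90 min at 37 deg C. Beta-arrestin recruitment was read as luminescence after 1 h with detection reagent at ambient temperature.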
Six1-Eya2 blk: inhibitors of human Six1/Eya2 interaction. activity change, % (test concentration not listed). AlphaScreen GST-Six1/His-Eya2 binding, biochemical; hits give low values; control for the full effect not named in the record. hit rate 0.56% among 360,000. Q15475+O00167; in the data active = activity change below about -65%; inconclusive = about -30% to -65%; inactive = above about -30%; also: % is scaled to controls: 0 for no effect and ±100 for the full control effect; compound concentration not given in the record
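GST-Six1 + His-Eya2 (5X stock: 250/500 nM); Tris pH 8.0, 300 mM NaCl, 0.05% BSA, 0.02% Tween 20; GSH donor/Ni acceptor beads; 1 h 37 °C dark; AlphaScreen readout.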
* = called active by the depositor; ? = inconclusive; nt = not tested or not shown; [ ] = another dose, or the depositor's remark. Rows were taken by chance; overall some 1.4% were active at least once.

SMILES	D2 agonist	gsp ag	CtBP-E1A inh	gsp antagonist	D2 PAM	Six1-Eya2 blk
Cc1cc(C)nc(SCc2ccc(Br)cc2)n1	-1.8	?	25.5	7.3%	-1.6	19.8
S=C(c1ccc2c(c1)OCO2)N1CCCC1	-0.9	-3.4%	-2.3	3.8%	-20.0	3.7
Cc1ccccc1Cn1cnc2c(NS(C)(=O)=O)c(C)c(C)cc21	1.5	-5.2%	-6.9	-19.5%	-3.4	4.2
O=C(COc1cccc(F)c1)Oc1ccc(C(=O)c2ccccc2)cc1	-1.5	4.3%	-0.1	-6.4%	16.6	-0.1
O=C1CN(c2nc(-c3cccnc3)nc3sc4c(c23)CCCC4)CCN1	-3.0	25.1µM*	-6.8	-11.9%	1.4	-8.4
COc1ccc(-n2nc(C)cc2N)cc1	3.1	3.9%	-10.9	11.5%	-9.6	2.9
CN(C)/C=C/C(=O)c1ccc(F)cc1	-0.3	-4.0%	-0.7	-9.3%	-0.1	-2.7
COc1ccc(CNC(=O)CSCc2ccccc2Cl)cc1	-1.7	-20.9%	18.6	4.7%	-3.9	20.0
CCCCn1c(N)c(N(CC)C(=O)c2ccccc2C)c(=O)[nH]c1=O	5.9	34.6%	5.4	8.7%	-4.2	5.4
C=CCN=C1SC(C)C(=O)N1S(=O)(=O)c1ccccc1 (stereo not given)	-0.3	-0.5%	-1.0	5.7%	-26.8	5.4
COc1cccc(/C=N/NC(=O)c2ccc(-n3cnnn3)cc2)c1	4.8	-15.8%[15.4 µM]	3.8	-1.4%	-2.1	-1.1
CCN(CC)C(=O)c1[nH]cnc1C(=O)Nc1ccon1	-3.3	17.5%	1.1	11.9%	-0.1	15.4

Rewritten bar-delimited: four of the compounds above
Compound | D2 agonist | gsp ag | CtBP-E1A inh | gsp antagonist | D2 PAM | Six1-Eya2 blk
O=C(COc1cccc(F)c1)Oc1ccc(C(=O)c2ccccc2)cc1 | -1.5 | 4.3% | -0.1 | -6.4% | 16.6 | -0.1
CCN(CC)C(=O)c1[nH]cnc1C(=O)Nc1ccon1 | -3.3 | 17.5% | 1.1 | 11.9% | -0.1 | 15.4
O=C1CN(c2nc(-c3cccnc3)nc3sc4c(c23)CCCC4)CCN1 | -3.0 | 25.1µM* | -6.8 | -11.9% | 1.4 | -8.4
COc1cccc(/C=N/NC(=O)c2ccc(-n3cnnn3)cc2)c1 | 4.8 | -15.8%[15.4 µM] | 3.8 | -1.4% | -2.1 | -1.1

More records:
SMILES	D2 agonist	gsp ag	CtBP-E1A inh	gsp antagonist	D2 PAM	Six1-Eya2 blk
O=C(NCc1ccncc1)/C(=N/O)c1ccccc1	-3.0	?	0.1	1.8%	-3.6	6.2
CN(C)C1(CNC(=O)C2CCN(S(=O)(=O)c3cccc(C(F)(F)F)c3)CC2)CCCCC1	-2.8	-18.9%	3.8	11.9%	-0.3	-0.6
COc1ccc2[nH]c3c(c2c1)CCN1C(=O)C(CC(=O)NCCCN(C)C)C[C@H](C(=O)N(C(C)C)C(C)C)[C@@]31C (stereo not given in full)	1.0	nt	0.5	6.0%	nt	5.6
CCSc1nnc(NC(=O)c2csc3c2CCCC3)s1	-1.7	?	5.4	18.1%	-9.6	2.7
COc1ccc(CN2CC(=O)N(c3cc(Cl)ccc3OC)C2=S)cc1OC	?	-16.8%	nt	-3.8%	-2.4	-4.5
CC(=O)N1c2ccc(S(=O)(=O)NCCC(=O)NCc3ccc(F)cc3)cc2CC1C (stereo not given)	-1.4	-23.1%	-2.0	-1.8%	-7.7	0.7
Cc1c(C=Nc2ccc(S(=O)(=O)N(C)C)cc2)c(O)[nH]c(=O)c1C#N	-1.2	2.3%[15.4 µM]	8.6	-11.1%	-0.7	4.4
CC(NC(=S)NCc1ccccc1)C12CC3CC(CC(C3)C1)C2 (stereo not given)	2.4	9.7%	0.7	10.3%	-3.1	-1.0
COc1ccc(C2CC(c3ccc4ccccc4c3OC(C)=O)=NN2C(=O)/C=C/c2ccccc2)cc1 (stereo not given)	-1.9	?	-1.4	-7.0%	-9.6	-12.2
CSc1ncccc1C(=O)Nc1cccc(C)n1	2.4	-20.9%	16.7	9.8%	-7.1	3.3
Cc1cccc(C)c1NC(=S)Nc1c(C)n(C)n(-c2ccccc2)c1=O	-9.1	-19.8%	-5.2	3.5%	0.5	6.8
C=CCOn1c(=O)c(-c2cccs2)[n+]([O-])c2ccccc21	-0.8	8.2%	-2.5	0.2%	2.4	-8.0
CCOc1ccc(NC(=O)CN2CCN(C(=O)C3CCCO3)CC2)cc1 (stereo not given)	2.1	8.5%[15.4 µM]	2.6	-0.4%	-10.5	4.1
Cc1ccccc1CC(=O)Nc1ccon1	5.3	11.7%[15.4 µM]	-1.2	-10.4%	-1.0	-4.3
Cn1c(=O)c(Sc2ccccc2)c(O)c2ccccc21	6.5	?	nt	-8.6%	-9.5	-3.4
CS(=O)(=O)Nc1cccc(-c2cc(NC=O)c3ncc(-c4ccc(F)cc4)n3c2)c1	4.2	nt	?	nt	-2.9	?
COc1ccc(OCC(O)CN2CCCC2)cc1 (stereo not given)	-0.3	-40.1%[inhibitor]	nt	7.8%	2.7	1.8
O=C(N/N=C/c1ccsc1)c1ccc2c(c1)OCO2	-0.8	-7.0%	21.5	0.8%	-6.0	-3.2
CC(=O)N1Cc2ccccc2CC1C(=O)OCC(=O)c1c(N)n(C)c(=O)n(C)c1=O (stereo not given)	-4.8	?	0.0	-11.9%	9.5	6.9
CCOc1ccc(C2Nc3ccccc3NC3=C2C(=O)CC(C)(C)C3)cc1OC (stereo not given)	2.7	-11.4%[15.4 µM]	8.7	4.8%	-3.2	1.1
CCOC(=O)C1CCN(C(=O)COC(=O)C2CCN(S(=O)(=O)c3ccc(C)c(C)c3)CC2)CC1	-2.3	-7.6%[15.4 µM]	1.0	10.2%	2.4	4.6
COc1ccc(OCc2n[nH]c(=S)o2)cc1	-2.7	2.2%	0.0	-3.4%	-6.6	27.0
COc1ccc(-c2noc(COc3ccc(Cl)c(C)c3)n2)cc1	-1.4	?	5.5	5.5%	-0.8	6.0
COc1ccc(NC2CCCN(C(=O)CCN3Cc4ccccc4C3=O)C2)cc1 (stereo not given)	0.2	-20.6%	-2.7	-17.0%	-9.9	-0.5
COC(=O)[C@H](C)[C@H]1C[C@]1(C)[C@H](NC(=O)OCc1ccccc1)c1ccccc1	0.4	nt	8.3	-12.5%	-5.4	5.6
CC1C(=O)Nc2ccccc2N1C(=O)c1ccc(O)cc1 (stereo not given)	6.5	?	4.1	-1.3%	-0.3	8.5
O=C(CCc1nc2ccccc2c(=O)[nH]1)Nc1nnc(SCc2ccccc2)s1	-5.3	3.6%[15.4 µM]	5.6	4.2%	12.4	-5.2
O=C(COc1ccc(Cl)cc1)NCCCNC(=O)c1cnccn1	-3.9	8.1%[15.4 µM]	3.4	6.5%	-5.2	-5.4
O=C1C2C3C=CC(CC3)C2C(=O)N1c1cccc(Br)c1 (stereo not given)	-3.4	-3.1%[15.4 µM]	13.6	11.7%	-5.5	-7.4
COc1ccccc1-c1cc(C(=O)NC(C)C)no1	-2.6	1.8%	4.0	-2.8%	-11.8	2.4
CCOc1ccc(N(CC(=O)N/N=C/c2cc([N+](=O)[O-])ccc2Cl)S(C)(=O)=O)cc1	-3.6	-6.6%	-14.3	-25.6%	-27.1	-26.4
O=C(CNS(=O)(=O)c1ccccc1)Nc1ccc(F)cc1F	-3.8	?	-23.9	9.9%	-7.2	-7.7
CC(=O)Nc1ccc(S(=O)(=O)N2CCN(CCCOc3ccccc3Cl)CC2)cc1	0.7	-9.8%	-6.8	6.7%	-5.8	1.3
Cc1ccc(N(CC(=O)N2CCOCC2)S(=O)(=O)c2ccccc2)cc1	-0.9	-2.7%	-0.2	3.3%	-1.5	7.0
COc1ccc(-n2c(SCC(=O)OC(C)C)nnc2-c2ccccn2)cc1	1.9	-61.8%[inhibitor]	-14.4	3.7%	-7.2	-9.3
CN(CC(=O)Nc1ccccc1C(=O)NC1CC1)Cc1ccco1	-4.3	-52.1%[inhibitor]	2.7	8.0%	-2.9	1.9
CCOc1ccccc1C(=O)N/N=C/c1coc2ccc(Cl)cc2c1=O	-7.8	21.9%	2.7	13.4%	-7.1	3.1
COc1ccc(NC(=O)c2cc(-c3ccc(C)cc3)on2)cc1	-3.6	-0.9%	7.9	-1.6%	-1.8	3.8
CCN(CC)S(=O)(=O)c1cc(NC(=O)CN2C(=O)NC(C)(c3ccccc3)C2=O)ccc1C (stereo not given)	1.4	-54.4%[inhibitor]	3.3	-5.4%	-3.3	-1.7
CCOc1cc(CNCC(C)C)cc(Cl)c1OCc1ccccc1	-6.2	-2.4%	nt	-0.9%	-49.3	21.9
O=C(NNC(=O)c1ccccn1)c1cccc([N+](=O)[O-])c1	-8.6	-2.2%[15.4 µM]	-66.0*	17.5%	-15.8	-82.0*
O=C(NCCCN1CCOCC1)C1CCCN(S(=O)(=O)N2CCCCC2)C1 (stereo not given)	0.7	?	0.0	16.4%	-5.6	-8.6
O=C(CCn1cnc2ccccc2c1=O)Nc1cccc(Cl)c1	-2.3	?	-3.3	4.8%	7.5	0.5
COc1ccc(-n2nc3c(N4CCC(C(=O)NC5CCCCC5)CC4)nnc(C)c3c2C)cc1	-3.2	1.7%	1.3	5.1%	-16.6	-2.1
O=C(Cc1c(Cl)cccc1Cl)NC1CC1	2.7	18.1%	10.0	8.6%	7.8	7.8
COc1cc(/C=N/O)cc(Cl)c1OC	-1.9	-37.9%[inhibitor]	10.7	10.3%	-0.4	3.8
N=C1C(c2nc3ccccc3[nH]2)=C(O)CN1c1ccccc1	1.0	-38.0%[inhibitor]	-12.0	-9.7%	-15.6	-12.8
CCOc1ccc(C(=S)NC2CCCCC2)cc1	-2.5	25.9%	-1.1	-12.4%	-9.8	1.6
CCC(=O)Nc1cccc(C2=NOC3(C2)C[C@@H](C(N)=O)N(C(=O)CC(c2ccccc2)c2ccccc2)C3)c1 (stereo not given in full)	1.6	2.0%	nt	-7.7%	5.9	0.9
Cc1ccc(S(=O)(=O)N(CCC(=O)O)c2ccccc2)cc1	0.7	-11.2%	7.5	-16.6%	-9.2	3.0
COc1ccc(C(=O)N2CC3(C)CC2CC(C)(C)C3)cc1 (stereo not given)	-2.5	-2.2%	-4.0	2.6%	-3.6	8.4
CCCCn1c(N)c(N(CCOC)C(=O)C2CCN(c3ncnc4sc(C)c(C)c34)CC2)c(=O)[nH]c1=O	-0.5	-8.3%[15.4 µM]	-90.2*	-9.6%	2.5	2.2
CCOC(=O)C1=C(N)Oc2c(oc(CO)cc2=O)C1c1ccc(F)c(F)c1 (stereo not given)	-6.5	22.8%[15.4 µM]	-0.3	-12.2%	-32.3	-17.9
CCCCCCCN1C2=NCCN2c2ccccc21	-8.9	6.8%	1.3	14.9%	-11.0	3.5
Cc1ccc(NC(=O)Cn2c(=O)oc3ccccc32)cc1	-2.4	10.6%[15.4 µM]	-1.7	-5.4%	-2.9	1.8
